# VDR inh = inhibitors of human vitamin D receptor; VDR-SRC2-3 peptide fluorescence polarization, 2 h; Potency, µM, for inactives: max response, negative = inhibition, most hits filed as inhibitors; P11473; AID 504847; hit rate 0.93% among 400,000; active = well fitted inhibition curve with a large enough effect; inconclusive = small, poorly fitted or top-dose-only effect, or another doubt; inactive = no such curve, though single readings can be large or run the other way; note: series mostly up to about 120 µM
# Target sequence (P11473 whole entry, looked up): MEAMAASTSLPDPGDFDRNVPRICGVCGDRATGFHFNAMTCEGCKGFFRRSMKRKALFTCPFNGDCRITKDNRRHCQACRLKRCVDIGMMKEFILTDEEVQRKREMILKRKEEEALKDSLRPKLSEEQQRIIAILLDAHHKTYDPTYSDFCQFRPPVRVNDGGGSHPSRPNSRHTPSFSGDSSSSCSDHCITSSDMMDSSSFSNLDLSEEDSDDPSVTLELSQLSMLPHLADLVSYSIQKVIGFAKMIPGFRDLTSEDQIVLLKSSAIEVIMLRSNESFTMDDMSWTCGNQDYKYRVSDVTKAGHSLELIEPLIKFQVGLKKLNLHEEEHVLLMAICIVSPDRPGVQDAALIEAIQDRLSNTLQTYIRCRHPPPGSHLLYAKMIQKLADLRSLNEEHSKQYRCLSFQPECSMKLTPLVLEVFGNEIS
#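 Measured by FP: displacement of SRC2-3 coactivator peptide from VDR by library compounds, following a two-hour ambient incubation.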
# Numbers without * were called inactive; ? = inconclusive; & = joins results of further samples; [ ] = another dose, or the depositor's remark. % is set by controls: 0 for no effect and ±100 for the full control effect; potency is the fitted concentration of half-maximal effect. A portion of the library, so the mix of outcomes need not match the whole.
SMILES,VDR inh
CC(=O)N1c2ccc(S(=O)(=O)N3CCC(C(=O)NC(C)c4ccccc4)CC3)cc2CC1C (configuration not stated),-10%
CCN1CCC(NC(=O)Nc2ccc(F)cc2F)CC1,-5%
CC(C)C12CCC(C(=O)O)C(C1)C(=O)O2 (configuration not stated),2%
Cc1ccccc1NC(=S)NC(NC(=O)c1ccccc1C)C(Cl)(Cl)Cl (configuration not stated),1%
COc1cccc(-c2c(NC(=O)c3ccco3)oc3ccccc3c2=O)c1,19%
CCOc1ccc(CC(=O)NC2CC(=O)N(c3ccc4c(c3)OCCO4)C2)cc1 (configuration not stated),-3%
Cc1ccc2c(CC(=O)OC3CCOC3=O)coc2c1 (configuration not stated),-10%
O=C(Nc1ccc(S(=O)(=O)N2CCOCC2)cc1)c1ccc(Cl)cc1,-1%
O=C1C=C(O)c2[nH]c(=O)ccc2C1=O,-9%
C=CCn1c(SCC(=O)N2N=C(c3ccco3)CC2c2ccco2)nnc1-c1ccncc1 (configuration not stated),6%

# Four entries from above, as labelled records.
> CCN1CCC(NC(=O)Nc2ccc(F)cc2F)CC1
- VDR inh: -5%

> CC(C)C12CCC(C(=O)O)C(C1)C(=O)O2 (configuration not stated)
- VDR inh: 2%

> Cc1ccccc1NC(=S)NC(NC(=O)c1ccccc1C)C(Cl)(Cl)Cl (configuration not stated)
- VDR inh: 1%

> O=C(Nc1ccc(S(=O)(=O)N2CCOCC2)cc1)c1ccc(Cl)cc1
- VDR inh: -1%

# Following part:
SMILES,VDR inh
CC(C)c1ccc(C(=O)NNC(=O)c2n[nH]c(=O)c3ccccc23)cc1,8%
COc1ccc(C(CC(=O)Nc2cc(OC)c(OC)c(OC)c2)N2Cc3ccccc3C2=O)cc1 (configuration not stated),-1%
Cc1ccc(CSCCNC(=O)c2ccccc2)cc1,-11%
CC(C)CN1CC2(CCN(C(=O)c3cccc(F)c3)CC2)C1,-3%
O=C(CN1CCN(S(=O)(=O)c2ccc(Cl)cc2)CC1)c1ccc(O)c(O)c1,3%
CCOc1ccc(S(=O)(=O)N2CCN(C(=O)c3cc(-c4ccccc4)nn3-c3ccccc3)CC2)cc1,-8%
O=C(COC(=O)CCc1ccc(S(=O)(=O)N2CCOCC2)cc1)NCc1ccccc1,22%
CC(=O)c1ccc(NC(=O)Cn2cc3c(n2)CCCC3)cc1,-1%
Cc1ccc(C(=O)/C=C/c2ccc(Br)cc2)o1,?
Cc1ccc(CNc2nnc(C)c3nnn(Cc4ccc(F)cc4)c23)cc1,-1%
CC1CC(C)CN(CCCNC(=O)C2CCN(S(=O)(=O)N3CCCCC3)CC2)C1 (configuration not stated),-10%
CC(=O)c1ccc(NC(=O)CSc2nccn2C)cc1,20%
O=C(NCc1ccco1)c1csc2c1CCCCC2,0%
O=C(O/N=C1\CCCCC1c1ccc([N+](=O)[O-])cc1[N+](=O)[O-])c1c(F)cccc1F (configuration not stated),-5%
COc1ccccc1Nc1nc(NCc2ccco2)c2ccccc2n1,-12%
CCCN1CCc2c(sc(NC(=O)CCS(=O)(=O)c3ccccc3)c2C(=O)OC)C1,2%
Nc1cc(N)cc(C(=O)Nc2ccc3c(c2)C(=O)NC3=O)c1,-10%
O=C(NCc1cccc(Cl)c1)c1ccc2ccccc2n1,13%
COc1cccc(C(=O)Nc2ccc3[nH]ncc3c2)c1OC,-12%
O=C(NCCc1ccc(Cl)cc1)c1ccc(OCC2CCCO2)cc1 (configuration not stated),-10%
Cc1nn(-c2ccccc2)c(Cl)c1/C=N\NC(=O)c1cncc(Br)c1,-8%
N#CCCN(Cc1cccnc1)C(=O)c1ccc(S(=O)(=O)N2CCOCC2)cc1,-2%
O=C(CCN1C(=O)COc2ccccc21)NCCN1CCN(c2cccc(Cl)c2)CC1,4%
O=c1c2cc(N3CCOCC3)ccc2[nH]c(=S)n1Cc1ccco1,79µM*
CC1(C)OCC(COC(=O)Nc2cccnc2)([N+](=O)[O-])CO1,-17%
CC(C)C(=O)Nc1ccc(Oc2ccc3c(c2)C(=O)NC3=O)cc1,-3%
CCCc1cc(C(=O)N2CCN(C(c3ccccc3)c3ccccc3)CC2)no1,-3%
CC(CC(=O)N1CCN(S(=O)(=O)c2ccc(Cl)cc2)CC1)n1cncn1 (configuration not stated),-13%
O=C(CNC(=O)c1ccc(Cl)cc1)OCC(=O)c1ccccc1,-7%
CN(C)C(=O)c1ccc(-c2nccc(Nc3ccc(F)cc3)n2)cc1,50µM*
CCc1ccc(C2c3c(oc4ccc(C)cc4c3=O)C(=O)N2c2nc(C)c(C)s2)cc1 (configuration not stated),1%
COc1cccc(CC(=O)OCC(=O)NC2(C#N)CCCC2)c1,3%
Cc1ccc(S(=O)(=O)n2cnc(C)c2)cc1,0%
CC(=O)c1ccc(NS(=O)(=O)c2cc(-c3cnc(C4CC4)o3)ccc2C)cc1,-8%&5%
Nc1ccc(Cl)c(-c2nc3ncccc3o2)c1,21%
Cc1ccc(NC(=S)Nc2cc(C(=O)O)ccc2N2CC3CC(C2)c2cccc(=O)n2C3)cc1C (configuration not stated),12%
O=C(c1cccc(NS(=O)(=O)c2cccc(F)c2)c1)N1CCCC1,-29%
O=C(N/N=C/c1ccncc1)c1ccc(NC(=O)c2ccc(Cl)cc2)cc1,-3%
O=c1[nH]c(Cc2cccs2)nc2scc(-c3ccc(Cl)cc3)c12,-4%
COC(=O)Cc1ccc(NC(=S)NCc2ccc(F)cc2)cc1,-9%
Cc1cc(-c2csc(NC(=O)c3ccc(=O)n(C)n3)n2)c(C)n1CC1CCCO1 (configuration not stated),7%
O=C(NCc1ccc(F)cc1)c1ccc(CSc2nc3ccncc3n2Cc2ccc(F)cc2)cc1,4%
Cc1cn(Cc2ccccc2)c(=O)[nH]c1=O,2%
Cc1ccccc1NC(=O)COC(=O)C1(C)CC1(Cl)Cl (configuration not stated),2%
CCOc1ccc(NC(=O)Nc2ccc(NC(C)=O)cc2)cc1,0%
Cc1ccc(NC(=O)CSc2n[nH]c(-c3ccco3)n2)c(C)c1,-14%
Cc1cc(NC(=O)NC(C(F)(F)F)C(F)(F)F)no1,0%
CNc1ncc(C(=O)c2ccc(Br)cc2)s1,9%
COc1cccc(C(=O)Nc2nnc(CCS(=O)(=O)c3ccc(C)cc3)s2)c1,5%
CN1C(=O)c2oc3ccccc3c(=O)c2C1c1ccncc1 (configuration not stated),79µM*
# The list goes on.
SMILES,VDR inh
O=C(c1cc(S(=O)(=O)N2CCCCC2)ccc1N1CCOCC1)N1CCN(Cc2ccccc2)CC1,10%
COc1cccc(C(c2ccccc2)N2C3CCC2CN(S(=O)(=O)c2ccc(F)cc2)CC3)c1 (configuration not stated),-14%
Cn1cccc1/C=C1\SC(=Nc2ccccc2)NC1=O,-7%
CC(C)CC(N)c1cn([C@@H](CCC(=O)O)C(=O)N2CCNCC2)nn1 (some centres not stated),3%
CCc1nn2c(=O)cc(COC(=O)c3ccccc3NC(=O)c3cccs3)nc2s1,12%
CCN(CC)C(=O)c1ccc(-c2nnc(Nc3ccc(C(=O)NC)cc3)c3ccccc23)cc1,-1%
C=C(C)CNC(=O)c1ccc(OC2CCN(S(=O)(=O)N(C)C)CC2)cc1,0%
O=C(Nc1cccs1)Nc1c(F)cc(F)cc1Br,-16%
COC(=O)c1[nH]c2ccc(C)cc2c1NC(=O)C1=COCCO1,-22%
COC(=O)c1cccc(Nc2c(-c3ccc(SC)cc3)nc3nc[nH]n23)c1,4%
CC(=O)c1cccc(-n2c(=O)c3c4c(sc3n(CC(=O)c3ccc(Cl)cc3)c2=O)CN(C(C)=O)CC4)c1,-2%
Cc1ccc(NC(=O)COC(=O)CSC(=S)N2CCOCC2)cc1C,-11%
O=C(CCC(=O)N1CCOCC1)NCc1cccc(C(F)(F)F)c1,2%
COC(=O)c1ccn(Cc2ccccc2Cl)n1,11%
CCN1C(=O)c2ccccc2Sc2ccc(C(=O)NCCN3CCOCC3)cc21,-5%
CN(CC(=O)NCc1ccco1)CC(=O)Nc1ccc(F)c(F)c1F,15%
COC(=O)c1[nH]c(C)c(/C(O)=C2\C(=O)C(=O)N(CCN(C)C)C2c2cccs2)c1C (configuration not stated),3%
CCc1c(C)nc(N)n2c(SCC(=O)N3CCCC(C)C3)nnc12 (configuration not stated),-1%
CCC(CO)Oc1cc(NCc2ccccc2O)c2ncn(C(C)C)c2c1 (configuration not stated),-10%
COc1ccc(C2C(C(=O)N3CCCCC3)c3ccccc3C(=O)N2C)cc1 (configuration not stated),-3%
Cc1ccc(Nc2cc(C)nn2-c2nc(C)cc(=O)[nH]2)cc1,11%
CCOC(=O)CNC(=O)CSc1nc(Cc2cccs2)nc2ccccc12,-93%
Cc1noc(C)c1S(=O)(=O)Nc1ccc(C(=O)O)cc1,-5%
CCOC(=O)Cn1c(=O)cc(C)c2cccc(C)c21,-19%
COc1cc(/C=N/NC(=O)C(N)=O)cc(OC)c1O,5%
Cn1ccc(NC(=O)c2ccc(Cl)cc2Cl)n1,-9%
COC(=O)c1ccc(NC(=O)Cn2ccn3nc(-c4ccc(OC)cc4)cc3c2=O)cc1,14%
O=C(CSc1ccc2ccccc2n1)NCCC1=CCCCC1,-7%
CCn1c(NCc2c[nH]c3ccccc23)nc2ccccc21,-12%
COc1ccc(-c2nc(CCNC(=O)c3ccc(Br)o3)cs2)cc1,-15%&-11%

# Single entries from the results shown.
# `CCOC(=O)Cn1c(=O)cc(C)c2cccc(C)c21` @ VDR inh = -19%
# `CCn1c(NCc2c[nH]c3ccccc23)nc2ccccc21` @ VDR inh = -12%
# `O=C(CSc1ccc2ccccc2n1)NCCC1=CCCCC1` @ VDR inh = -7%
# `COC(=O)c1ccc(NC(=O)Cn2ccn3nc(-c4ccc(OC)cc4)cc3c2=O)cc1` @ VDR inh = 14%
# `CCOC(=O)CNC(=O)CSc1nc(Cc2cccs2)nc2ccccc12` @ VDR inh = -93%
# `COc1ccc(-c2nc(CCNC(=O)c3ccc(Br)o3)cs2)cc1` @ VDR inh = -15%&-11%
# `Cc1ccc(Nc2cc(C)nn2-c2nc(C)cc(=O)[nH]2)cc1` @ VDR inh = 11%

# Additional entries follow:
SMILES,VDR inh
CN(Cc1ccc(C(F)(F)F)cc1)C(=O)c1ccc(Oc2ccccc2)cc1,14%
O=C(NC(=S)Nc1ccc(Oc2ccc(Cl)cc2)cc1)c1ccccc1,37%[activator]
CN(Cc1ccco1)S(=O)(=O)c1cc(F)ccc1CN1C(=O)c2cccnc2C1=O,-28%
COc1ccc(C2=NN(C(=O)CN3CCCC3)C(c3ccc(OC)cc3)C2)cc1 (configuration not stated),4%
O=C(Nc1cccc(S(=O)(=O)N2CCCCCC2)c1)C1CCC1,-12%
CCNC(=S)N1CCC(c2nc3ccccc3s2)CC1,4%
CCOC(=O)CSc1nc2cc(C(=O)N3CCC(C(N)=O)CC3)ccc2c(=O)n1C1CCCCC1,-2%
Cc1ccc(CNS(=O)(=O)c2cc(Br)cc3c2N(C(=O)C2CC2)CC3)cc1,-14%
CCN(CC)CCn1c(=S)[nH]c2cc(Cl)ccc2c1=O,-3%
N#C/C(=C\c1cccnc1)c1nc2ccccc2[nH]1,-16%

# Arranged by molar mass (largest number first): 3 of the compounds above
SMILES,VDR inh
C=CCn1c(SCC(=O)N2N=C(c3ccco3)CC2c2ccco2)nnc1-c1ccncc1 (configuration not stated),6%
Cc1nn(-c2ccccc2)c(Cl)c1/C=N\NC(=O)c1cncc(Br)c1,-8%
O=C(CCC(=O)N1CCOCC1)NCc1cccc(C(F)(F)F)c1,2%

# Carrying on.
SMILES,VDR inh
Cc1ccc(-c2nc(C3CCN(S(=O)(=O)c4ccc(C(C)(C)C)cc4)CC3)no2)cc1,8%
CC(=O)c1cccc(NC(=O)c2ccc(OC3CSC3)cc2)c1,-8%
CC(=O)N=c1c(C#N)cc2c(=O)n3cccc(C)c3nc2n1CCCOC(C)C,6%
O=Cc1c(N2CCC3(CC2)OCCO3)nc2ccccn2c1=O,-4%
COc1cc(/C=N/NC(=O)c2ccccc2)ccc1O,3%
CN(C)c1ccc(C(c2ccc(N(C)C)cc2)c2ccc([N+](=O)[O-])cc2)cc1,-7%
O=C(Nc1nc(-c2cc(Cl)sc2Cl)cs1)c1ccc(Br)s1,?
OC(COCCC12CC3CC(CC(C3)C1)C2)CN1CCCC1 (configuration not stated),1%
COc1ccc(CNC(=O)C2CCCN(S(=O)(=O)c3ccc4c(c3)CCCN4C(C)=O)C2)cc1 (configuration not stated),14%&1%
O=c1[nH]c(-[n+]2ccccc2)c(/C=N/NC([S-])=Nc2ccccc2)s1,-11%
COCCNC(=O)c1cc2c(Cl)nc3ccc(C)cc3c2s1,-7%
CCOc1ccc(N=C(C)C2=C(O)c3ccccc3C2=O)cc1,-1%
COc1ccccc1N=NC1C(=O)N(C(N)=S)N=C1C (configuration not stated),-22%
COc1ccc(CC2NCCC3(O)CCCCC23)cc1 (configuration not stated),8%
Cc1ccc(NC(=O)COc2ccc(-n3ccnc3)cc2)cc1Cl,15%
O=S(c1ccccc1)C(c1ccccc1)c1ccccc1 (configuration not stated),-21%
O=C(CCc1nc2sc3c(c2c(=O)[nH]1)CCCC3)NCCc1ccccc1,5%
Cc1ccc(C(=O)c2oc3ccccc3c2NC(=O)c2cc(-c3cc(C)ccc3O)n[nH]2)cc1,-16%
CCOc1ccc(Br)cc1S(=O)(=O)Nc1ccccc1N1CCOCC1,2%
CCn1c(=O)n(CC(=O)NCC2CCCO2)c(=O)c2c3c(sc21)COC(C)(C)C3 (configuration not stated),-11%
COc1cccc(NC(=O)c2cncs2)c1,-1%
CC[C@@H]1C=C(C(=O)O)[C@H](c2ccc(Cl)cc2)N1S(=O)(=O)c1ccc(C)cc1,-10%
CCOc1ccccc1CNCc1cccn1-c1nnc(N2CCN(c3ccccc3)CC2)s1,8%
O=C(Nc1cccc(Cl)c1)c1nc[nH]c1C(=O)NCCCNC(=O)c1[nH]cnc1C(=O)Nc1cccc(Cl)c1,-21%
Cc1nn(C(C)CC(=O)O)c(C)c1C (configuration not stated),-20%
Cn1c(NC(=O)CCc2ccccc2)cc(=O)n(C)c1=O,-17%
CCOC(=O)c1c(C)[nH]c(C)c1C(=O)COC(=O)CCOc1ccccc1OC,-4%
COCCS(=O)(=O)N(Cc1ccccc1)[C@H](C(=O)OC)C(C)C,-14%

# Source: PubChem (National Center for Advancing Translational Sciences (NCATS))
